Bst PK mod = alters activity of Bacillus stearothermophilus pyruvate kinase | partly purified Bacillus stearothermophilus pyruvate kinase, luminescence ATP production; ribose 5-phosphate activator present at AC10 | AID 361 | hit rate 1.2% among 51,000 | Potency, µM; in the data active means potency below about 11 µM; inconclusive means mostly about 12 µM to 25 µM; inactive means weaker than that;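 the screen sought inhibitors and activators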;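 also: potency is read from the fitted curve at half-maximal effect; scaled between full activation by ribose 5 phosphate and full inhibition by luteolin; about four in five hits inhibit and the cells do not say which; series up to 57 µM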
TsaE inh = displaces an ADP probe from E. coli YjeE (TsaE) | P0AF67 | purified YjeE, fluorescence polarisation of a bound ADP probe | Potency, µM | hit rate 0.05% among 71,000 | AID 605; active = well fitted falling curve; inconclusive = weaker or top-dose-only fall, or a rising curve; inactive = flat or poorly fitted curve;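 also: top concentration of the series not given in the record; excess ADP was the control for the full effect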
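Purified YjeE (10 uM) with BODIPY Texas Red-labeled ADP probe (2 uM); compounds pin-transferred, 15 min at room temperature. Binding inhibition read as decreased fluorescence polarization; ADP titration as control.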
Numbers without * were called inactive; i = inactive; . = not tested or not shown. An excerpt; rates above refer to the full screens.

SMILES	Bst PK mod	TsaE inh
N#CC1=C(N)Oc2c(oc(CO)cc2=O)C1c1cccs1 (centres undefined)	>57	i
CCOC(=O)CNC(=O)c1cn(CC)c(=O)c2cc(OC)c(OC)cc12	>57	i
Cc1cccc2cc(CN(Cc3ccco3)C(=O)c3cccs3)c(=O)[nH]c12	>57	i
CCOc1ccccc1NC(=O)c1ccc2nccnc2c1	>57	i
Cc1ccc(N2CC(C(=O)NCc3ccccn3)CC2=O)cc1 (centres undefined)	>57	i
COc1ccc(NC2CS(=O)(=O)CC2NCc2ccco2)cc1 (centres undefined)	>57	i
CN(c1ccc(C(=O)Nc2ccccc2C(F)(F)F)cc1)S(C)(=O)=O	>57	i
COc1ccc(NC(=O)c2c(NC(=O)CNCc3ccco3)sc3c2CCC3)c(OC)c1	.	i
Oc1ccc(CNc2ccccc2)c2cccnc12	>57	i
c1ccc2c(c1)N1CCN=C1N2CCN1CCCCC1	>57	i
CCCCC(=O)Nc1ccc2c(c1)nc(CCN1CCOCC1)n2C	>57	i
CC1(C)CC(=O)c2c(nn(-c3ccccc3)c2N)C1	>57	i
CSCCOC(=O)C1=C(C)NC(=O)CC1c1ccccc1Cl (centres undefined)	>57	i
CCCC(c1nnnn1C(C)(C)CC)N(Cc1ccco1)Cc1cc2ccc(OC)cc2[nH]c1=O (centres undefined)	>57	i
Cc1cc(C(=O)NCc2cccs2)cs1	>57	i
CCc1c2c(nc3c(C(C)C)cccc13)-c1cccc(=O)n1C2	.	i
COc1ccc(C(=O)Nc2nnc(C(F)(F)F)s2)cc1	.	i
Cc1ccc(NC(=O)c2nnn(-c3cc(C)cc(C)c3)c2N)cc1	>57	i
Cc1ccc2c(Cl)cc(Cl)c(OCC(=O)NC(=O)NCc3ccco3)c2n1	3.1*	i
N#Cc1cnc(SCC(=O)c2ccccc2)nc1N	>57	i

Single records, from the list above. Order of screens: Bst PK mod | TsaE inh
`N#Cc1cnc(SCC(=O)c2ccccc2)nc1N` across the screens: >57 | i
`CC1(C)CC(=O)c2c(nn(-c3ccccc3)c2N)C1` across the screens: >57 | i

Continued.
SMILES	Bst PK mod	TsaE inh
O=S(=O)(CCN(CCS(=O)(=O)C(F)(F)F)CC1CCCO1)C(F)(F)F (centres undefined)	>57	i
OCCN(CCO)c1ncnc2c1sc1nc(N3CCOCC3)c3c(c12)CCCC3	>26	.
Fc1cc2ncn(Cc3ccccc3)c2cc1F	>57	i
CCOC(=O)c1cn(CC)c2cc(N3CCSCC3)c(F)cc2c1=O	>57	i
Cn1c(N)c(C(=O)CSc2ccc3c(c2)OCCO3)c(=O)n(C)c1=O	>57	i
O/N=C(/CN(O)/C=C1/C=CC=N1)c1cccs1	>57	i
COc1ccccc1NC(=O)CN1CCN(CC(=O)Nc2ccc(OCc3ccccc3)cc2)CC1	>57	i
Cc1cc(S(=O)(=O)NCCN2CCOCC2)c(C)s1	>57	i
Cc1cc(-c2ccc(N3C(=O)CCC3=O)c(C)c2)ccc1N1C(=O)CCC1=O	.	i
CCOC(=O)C1CCN(C(=O)Cn2cc3c(n2)CCC(C)C3)CC1 (centres undefined)	.	i
CCCC(=O)N1CCN(c2ccc(NC(=O)c3ccc(Br)o3)cc2)CC1	>57	i
CCn1c(SCC(=O)Nc2cc(C)on2)nc2sc(C)c(C)c2c1=O	>57	i
CC1(C)[C@@H](CC(=O)O)CCC[C@@H]1CC(=O)O	.	i
CCOC(=O)Cc1csc(Nc2c(C)n(C)n(-c3ccccc3)c2=O)n1	>57	i
O=C1c2ccccc2C(=O)N1CCCC(=O)N1CCc2ccccc21	.	i
CCOC(=O)N1CCN(c2nc3c(c(=O)[nH]c(=O)n3C)n2Cc2ccccc2Cl)CC1	>57	i
O=C(O)CCCn1nc(C(F)(F)F)c2c1CCCCC2	>57	i
CC(=O)NC(Cc1ccccc1F)C(=O)NC1CCN(C(=O)c2cnccn2)CC1 (centres undefined)	>57	i
CCN(Cc1ccccc1)S(=O)(=O)c1ccc(C(=O)Nc2nnc(-c3ccccc3OC)o2)cc1	>57	i
COc1ccc(CCNC(=O)c2ccc(NS(=O)(=O)c3c(C)noc3C)cc2)cc1OC	>57	i
COCc1cc(C)n(CC(=O)NC(C)c2ccccc2)c(=O)c1C#N (centres undefined)	>57	i
O=C(NCC(=O)N(Cc1ccccc1)C(C(=O)NC1CCCC1)c1ccco1)c1ccco1 (centres undefined)	>57	i
CCOC(=O)C(C(=O)Nc1ccccn1)C1CCCCC1 (centres undefined)	.	i
CCCn1nc(C(=O)Nc2cccc(C(=O)OC)c2)c2ccccc2c1=O	.	i
CCC(CC)C(=O)Nc1cc(C)cc(C)c1	>57	i
CCOC(=O)c1nnn(-c2nonc2N)c1CN(C)C1CCCCC1	>57	i
CCCc1cc(C(=O)Nc2sc3c(c2C#N)CCC3)no1	.	i
Cn1c(SCCOc2ccc(Cl)cc2)nnc1-c1ccncc1	>57	i
Cc1ccc(-c2ccc(S(=O)(=O)N3CCN(C)CC3)cc2)cc1	>57	i
CCN(CC)CCCCn1c(-c2ccccc2)nc2c(Nc3ccccc3)nc(C)nc21	.	i
O=C(c1cc(=O)c2ccccc2o1)N1CCCc2ccccc21	>57	i
COc1ccc(CCNC(=O)c2cnc3scc(C)n3c2=O)cc1OC	.	i
Fc1ccccc1-c1nc(N2CCCCC2)c2ccccc2n1	>26	.
CCOC(=O)C(C)Oc1ccc(C2NC(=O)NC(C)=C2C(C)=O)cc1Br (centres undefined)	>57	i
Cc1nc(N2C(=O)C(=O)/C(=C(/O)c3ccccc3)C2c2ccco2)sc1C (centres undefined)	>57	i
CS(=O)(=O)c1ccc(-c2cc(Br)sc2-c2ccc(F)cc2)cc1	.	i
CCOC(=O)N1CCN(C(=O)CCn2nc(-c3ccccc3)ccc2=O)CC1	>57	i
CCOC(=O)CCn1c2nc(C)cc(C)c2c(=O)n1-c1ccccc1	>57	i
O=C1CC(N2CCCc3ccccc32)C(=O)N1c1ccccc1 (centres undefined)	.	i
CC(=O)N1[C@H](Cc2ccccc2)C=C[C@]1(C)C(=O)NCc1ccc(C)o1	.	i

Pulled one by one from the list above, 4 records:
SMILES	Bst PK mod	TsaE inh
CCCCC(=O)Nc1ccc2c(c1)nc(CCN1CCOCC1)n2C	>57	i
COc1ccc(NC2CS(=O)(=O)CC2NCc2ccco2)cc1 (centres undefined)	>57	i
CCCC(=O)N1CCN(c2ccc(NC(=O)c3ccc(Br)o3)cc2)CC1	>57	i
CC(=O)NC(Cc1ccccc1F)C(=O)NC1CCN(C(=O)c2cnccn2)CC1 (centres undefined)	>57	i

Remaining list, next part.
SMILES	Bst PK mod	TsaE inh
O=C(c1ccc(S(=O)(=O)N2CCOCC2)cc1)N(c1ccc(F)cc1)C1C=CS(=O)(=O)C1 (centres undefined)	>57	i
CC(=O)c1coc2ccc(OCC(=O)O)cc12	>57	i
O=C(c1cnccn1)N1CCN(C/C=C/c2ccccc2)CC1	>57	i
CCn1c(SCc2nnc(-c3ccccc3)o2)nnc1-c1ccc(S(=O)(=O)N2CCCC2)cc1	>57	i
CC1=C(C(=O)N2CCCCC2)C2(CCC(C)CC2)OC1=O (centres undefined)	.	i
CCOc1ccc2nc(NC(=O)COC)sc2c1	i	i
CC(=O)NCCn1ccc2ccccc21	>57	i
CCCCn1c(SCn2nnc3ccccc3c2=O)nc2cc(C(=O)OC)ccc2c1=O	>57	i
COc1ccc(C2C(C(=O)NCCN3CCOCC3)c3ccccc3C(=O)N2C)cc1OC (centres undefined)	>57	i
CCNc1nc(NC#N)nc(SCC(=O)OCC)n1	>57	i
Cc1nc(-c2cccc(N)c2)cs1	.	i
CC(Sc1ccccn1)C(=O)Nc1ccccc1 (centres undefined)	>57	i
N#Cc1ccsc1NC(=O)CSc1ncnc2ccccc12	>57	i
CCCOc1ccc(C(=O)Nc2ccc(N(C)C)cc2)cc1	.	i
CCOc1ccc(C2/C(=C(/O)c3ccc(Cl)cc3)C(=O)C(=O)N2CCCN(C)C)cc1OC (centres undefined)	>57	i
O=C(Nc1ccccc1C(=O)N1CCOCC1)C1CC(=O)N(C2CCCC2)C1 (centres undefined)	>57	i
CCc1ccc(NC(=O)N(CCN2CCOCC2)C2CCN(C(C)=O)CC2)cc1	>57	i
CCOc1cccc(-c2nnc(SCC(=O)Nc3ccc(OC)c(OC)c3)n2N)c1	>57	i
Cc1cc(/N=C/N(C)C)on1	>57	i
COCCOC(=O)C1=C(C)N=c2s/c(=C\c3cccs3)c(=O)n2C1c1cccs1 (centres undefined)	.	i
O=C(CSc1nnc(CNc2ccc(F)cc2)n1Cc1ccccc1)NCc1ccco1	>57	i
CCc1nnc(NC(=O)CSc2ncc(-c3ccccc3)n2C)s1	>57	i
O=C(Cn1c(CC(=O)N2CCCC2)nc2ccccc21)NCc1ccccc1	>57	i
Cn1c(=O)cc(SCC(=O)NCCN2CCN(c3ccccc3F)CC2)c2cc(Cl)ccc21	>57	i
COc1ccc(OCc2nn3c(Cn4cnc5ccccc54)nnc3s2)cc1	>57	i
CCCCNC(=O)c1c(N)n(/N=C/c2cccnc2)c2nc3ccccc3nc12	>26	.
O=C(Nc1ccc(-c2nnco2)cc1)c1ccccc1	.	i
CCn1c(CNc2ccc(F)cc2)nnc1SCCN1CCCCC1	>57	i
Cc1c(C(=O)N2CCCC2)sc(NC(=O)c2cccs2)c1C#N	>57	i
CN(C)c1ncc2nc(-c3ccc(F)cc3)c(=O)n(Cc3cccs3)c2n1	.	i
CCc1nnc(NC(=O)c2cc3ccccc3oc2=O)s1	>57	i
Cc1ccc2c(C(=O)CN3CCCC3)c(C)[nH]c2c1	>11	i
O=C(O)C1CCCCC1C(=O)NCCCCc1ccccc1 (centres undefined)	>57	i
CCc1c(C)nc(N2CCOCC2)[nH]c1=O	>57	i
Cc1cc(C)nc(SCSc2nc(C)cc(C)n2)n1	.	i
Cn1cccc1C(=O)N1CCC2(CC1)CN(c1cccc(-c3ccccc3)c1)C2	.	i
COc1ccc(N(C(=O)Cn2nnc3ccccc32)C(C(=O)NCc2ccco2)c2cccnc2)cc1 (centres undefined)	>57	i
CN(C)S(=O)(=O)Nc1ccccn1	.	i
CCn1c2ccccc2c2nnc(SCC(=O)OCN3C(=O)c4ccccc4C3=O)nc21	.	i
C=C(C)CSc1nnc(-c2cccc(Cl)c2)n1N	>57	i
O=C(NCCCN1CCN(c2ccccc2F)CC1)C1CCN(S(=O)(=O)c2cccs2)CC1	>57	i
NC(=O)CSC1=Nc2ccccc2C2=NC(CCC(=O)NCc3ccc(F)cc3)C(=O)N12 (centres undefined)	>57	i
CCC(C)(C)n1nnnc1C(c1cccc(C#N)c1)N1CCN(c2cc(C)ccc2C)CC1 (centres undefined)	>57	i
CCSc1ccccc1C(=O)NCc1ccc2c(c1)OCO2	>57	i
Cc1ccc2nc(NC(=O)CN(C)S(=O)(=O)c3ccc(Br)s3)sc2c1	.	i
O=C(Nc1ccc(N2CCCC2)c(Cl)c1)c1ccco1	.	i
CSc1ncccc1C(=O)OCC(=O)c1cc2ccccc2o1	>57	i
COc1ccc2nc(SCC(=O)NC(C)(C)C)[nH]c2c1	>57	i
C=CCN1C(=Nc2cccnc2)SCC1(O)c1ccc(C)cc1 (centres undefined)	.	i
N[C@H](C(=O)O)c1cc(O)cc(O)c1	.	i

Entries shown so far with a COOH group, in the order listed:
SMILES	Bst PK mod	TsaE inh
CC1(C)[C@@H](CC(=O)O)CCC[C@@H]1CC(=O)O	.	i
O=C(O)CCCn1nc(C(F)(F)F)c2c1CCCCC2	>57	i
CC(=O)c1coc2ccc(OCC(=O)O)cc12	>57	i
O=C(O)C1CCCCC1C(=O)NCCCCc1ccccc1 (centres undefined)	>57	i
N[C@H](C(=O)O)c1cc(O)cc(O)c1	.	i

Carrying on.
SMILES	Bst PK mod	TsaE inh
CNC(=O)CN(c1ccc(C(C)C)cc1)S(C)(=O)=O	.	i
CCn1c(=O)c(C)nn2c3ccccc3nc12	>57	i
CCOC(=O)c1csc(NC(=O)CSc2nnnn2-c2ccc(OC)cc2)n1	>57	i
CC(c1ccccc1F)n1cc(C(=O)NCCc2ccco2)nn1 (centres undefined)	>57	i
COc1ccc(C(=O)c2ccc(N(C)C)cc2)c(OC)c1	>57	i
CC(=O)Nc1ccc(S(=O)(=O)N2CCSC2C(=O)O)cc1 (centres undefined)	>57	i
Cc1cccc(CNc2ccnc(-c3cccc(C#N)c3)n2)c1	.	i
Cc1cccn2c(=O)c(C=Nc3ccccc3)c(NCc3ccco3)nc12	>57	i
CC(C)COC(=O)c1cc(=O)[nH]c2ccccc12	.	i
CC1=Nn2c(nnc2-c2ccco2)SC1	>57	i
O=C(COc1ccc(-c2nnco2)cc1)N1CCN(S(=O)(=O)c2ccc3ccccc3c2)CC1	>57	i
COc1nc(C)ccc1-c1noc(-c2ccco2)n1	i	i
O=C(O)c1ccc(Nc2ccnc3cc(Cl)ccc23)cc1O	.	i
O=C(c1cccc(Br)c1)N1CCN(C(=O)N2CCCCC2)CC1	>57	i
CCOC(=O)C1CCCN(c2c(N3CCN(C4CCCCC4)CC3)c(=O)c2=O)C1 (centres undefined)	.	i
COc1ccc(N2CCN(c3cc(=O)n(Cc4ccc(F)cc4)c(=O)[nH]3)CC2)cc1	.	i
COC(=O)c1[nH]c2c(c1C)C(=O)CC(c1cccs1)C2 (centres undefined)	>57	i
CCCS(=O)(=O)N1CCC(C(=O)NCc2ccccc2Cl)CC1	>57	i
